CDC25B CDK2 inh = human CDC25B-CDK2/CyclinA binding inhibition; z-score (test concentration not listed); P30305+P24941; 94,000 tested, 0.72% active; HTRF CDC25B-CDK2/CyclinA binding, anti-His/anti-Flag; active compounds read high;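 further: score is relative to mean and SD of negative controls; strong numbers were not always called active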
HIV TAR-Tat = HIV-1 TAR-Tat binding disruption; HIV-1 TAR RNA, Tat peptide displacement FRET; active compounds read high; z-score (test concentration not listed); 100,000 tested, 0.6% active; AID 1259389;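 further: score is relative to mean and SD of negative controls; some compounds called inactive have numbers as strong as hits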
* = called active by the depositor; nt = not tested or not shown.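 How the source made its calls: active means z-score from 3 up in half or more of its runs; inactive means the rest.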

A first look (7 entries):
canonical_smiles	CDC25B CDK2 inh	HIV TAR-Tat
Cc1cc(C)n(S(=O)(=O)c2cc(Br)ccc2C)n1	-0.96	0.39
Cn1nc(C(=O)NCCCN2CCCC2)c2c1-c1ccccc1S(=O)(=O)C2	-1	0.98
COc1ccc(CCNC(=O)c2nc3ccccc3c(=O)n2-n2cccc2)cc1OC	-1.6	nt
Cc1ccc(C2C=C(c3ccccc3)Nc3nc(N4C(=O)CCC4=O)nn32)cc1 (configuration not stated)	-0.12	nt
COc1ccc(-c2cc(NCc3ccccc3Cl)n3cnnc3n2)cc1	-1.5	1.9
COc1cc2c(cc1OC)CN(S(=O)(=O)c1ccc(Cl)c(C(F)(F)F)c1)CC2	0.6	nt
O=S(=O)(c1ccc(Cl)cc1)N1CCCC(c2nc(-c3ccccc3Br)no2)C1 (configuration not stated)	nt	1.1

Main list (from the top)
canonical_smiles	CDC25B CDK2 inh	HIV TAR-Tat
Cc1cc(C)n(S(=O)(=O)c2cc(Br)ccc2C)n1	-0.96	0.39
Cn1nc(C(=O)NCCCN2CCCC2)c2c1-c1ccccc1S(=O)(=O)C2	-1	0.98
COc1ccc(CCNC(=O)c2nc3ccccc3c(=O)n2-n2cccc2)cc1OC	-1.6	nt
Cc1ccc(C2C=C(c3ccccc3)Nc3nc(N4C(=O)CCC4=O)nn32)cc1 (configuration not stated)	-0.12	nt
COc1ccc(-c2cc(NCc3ccccc3Cl)n3cnnc3n2)cc1	-1.5	1.9
COc1cc2c(cc1OC)CN(S(=O)(=O)c1ccc(Cl)c(C(F)(F)F)c1)CC2	0.6	nt
O=S(=O)(c1ccc(Cl)cc1)N1CCCC(c2nc(-c3ccccc3Br)no2)C1 (configuration not stated)	nt	1.1
Cc1ccc(/C(O)=C2/C(=O)C(=O)N(CC(C)C)C2c2cccnc2)cc1 (configuration not stated)	-0.49	0.06
c1cnc2c(SCc3cn4ccccc4n3)cccc2c1	-1.9	-2.1
Cc1csc2nc(COc3ccc(NC(=O)c4cccs4)cc3)cc(=O)n12	-2	1.1
Cc1ccc(C(=O)CSc2nn3c(=O)c(C)nnc3s2)cc1C	nt	-0.11
O=C(Cn1cnc2sc3c(c2c1=O)CCCC3)Nc1ccc(F)cc1F	-1.6	nt
O=C(COc1ccc(Cl)cc1)Nc1ccc2nsnc2c1	-2.3	1.1
Cc1ccc(-n2nc3c(c2NC(=O)c2ccc4c(c2)OCO4)CSC3)cc1	-2.2	nt
CCc1nn(CC(=O)NCCCN2C(C)CCCC2C)c(=O)c2cc3sccc3n12 (configuration not stated)	-0.42	0.65
O=C1CC(C(=O)Nc2ccc(Br)cc2)SC(=Nc2ccccc2)N1 (configuration not stated)	-2	1.8
CC(C)CN(CC(C)C)C(=O)C1CCC(CNc2c(N3CCCC3)c(=O)c2=O)CC1 (configuration not stated)	0.7	nt
Cc1cc(C)n(-c2ccc3ccccc3n2)n1	-1	0.52
O=C1CC(NC2CCN(c3ncc(C(F)(F)F)cc3Cl)CC2)C(=O)N1c1ccc(F)cc1 (configuration not stated)	-1.1	-1.9
CN(C)c1ccc(C2NC(C(=O)O)Cc3c2[nH]c2ccccc32)cc1 (configuration not stated)	-3.3	-5
COc1cccc(C2=NN(C(C)=O)C3(CCCC3)O2)c1	-1.8	nt
Cc1cc(CN2C(=O)c3ccccc3S2(=O)=O)no1	-0.56	nt
COc1cc(CN2c3ccccc3N3CCCCCC32)cc(OC)c1OC (configuration not stated)	-0.17	nt
CNC(=O)Nc1c(C)n(C)n(-c2ccccc2)c1=O	-3.3	1.6
CCc1cc2c3c([nH]c2cc1S(=O)(=O)N1CCN(C2CCCCC2)CC1)CCCC3=O	nt	1.8
COc1cc(NC(=O)CCS(=O)(=O)c2ccc3c(c2)CCN3C(=O)C2CC2)cc(OC)c1	nt	0.67
CC(C)Cc1ccc2c(C(=O)c3ccc(Br)cc3)c(N)sc2n1	-0.16	nt
CCOC(=O)c1sc(N)nc1C	0.81	1.2
Cc1cccc(-n2nnc(-c3ccc(C(C)(C)C)cc3)n2)c1	0.12	0.31
CCOC(=S)SCc1cc(C(C)=O)ccc1OC	-1.6	nt
Cc1oc(-c2cccc(Cl)c2)nc1CSc1nc2ccncc2[nH]1	-0.18	0.21
COc1ccccc1N1CCN(C2CCN(S(=O)(=O)c3ccc(Cl)cc3)CC2)CC1	2.1	3.8
Cc1cc2c3c([nH]c2cc1S(=O)(=O)NCCCN1CCC(C)CC1)CC(C)(C)CC3=O	nt	1.8
CCc1nc(SCC(=O)Nc2nccs2)c2c(=O)n(C)c(=O)n(C)c2n1	nt	0.52
O=C(NCCc1ccco1)C1=Cc2cc(Br)ccc2OC1	nt	0.35
C=CCOC(=O)C1C(c2ccc(OC)c(OC)c2)c2c([nH][nH]c2=O)CC1(C)O (configuration not stated)	0.18	0.68

Some of these compounds in order of number of heavy atoms, high to low:
canonical_smiles	CDC25B CDK2 inh	HIV TAR-Tat
COc1ccc(CCNC(=O)c2nc3ccccc3c(=O)n2-n2cccc2)cc1OC	-1.6	nt
O=S(=O)(c1ccc(Cl)cc1)N1CCCC(c2nc(-c3ccccc3Br)no2)C1 (configuration not stated)	nt	1.1
COc1cc(CN2c3ccccc3N3CCCCCC32)cc(OC)c1OC (configuration not stated)	-0.17	nt

Other records follow:
canonical_smiles	CDC25B CDK2 inh	HIV TAR-Tat
O=C1C2=C(C(=O)N1c1ccc(Br)cc1)C(c1ccccc1)=NCCN2	-1.4	nt
O=C(O)CCc1cccnc1	-1.8	nt
O=C(NCC1CCCO1)c1ccc(-n2cnc3cccnc32)cc1 (configuration not stated)	nt	0.22
O=C(NC1CC1)c1cnn(-c2ccccc2)c1-n1cccc1	-0.35	0.27
CCC(Sc1nnc(C)n2c1cc1occc12)C(=O)Nc1c(C)cc(C)cc1C (configuration not stated)	nt	2.3
Cc1cccn2c(=O)c3cc(C(=O)N(C)Cc4ccccc4)sc3nc12	-0.22	nt
CCCCNC(=O)C1CCCN(S(=O)(=O)N2CC(C)CC(C)C2)C1 (configuration not stated)	nt	1.6
CC1=C(c2ccc(Cl)cc2)S(=O)(=O)N=C1Nc1ccc(C)c(C)c1	-4.5	1.1
COC(=O)c1c(C)nc2n(CCN3CCCCC3)c3ccccc3n12	-0.74	0.28
Cc1ccc(NC(=O)Nc2c(-n3cnnc3)nn(C)c2C)cc1	-1.3	0.04
CC(=O)C(C)(C)OC(=O)N1CCOCC1	0.14	nt
COC(=O)c1ccc(-n2nnnc2SCc2ccccn2)cc1	0.31	0.44
CCCc1nnc(NC(=O)c2nc(S(C)(=O)=O)ncc2Cl)s1	0.76	-0.17
c1ccc(-c2nnc(CN3CCN(c4ccccc4)CC3)o2)cc1	-1.8	1.4
COC(=O)c1cc(S(=O)(=O)N(C)Cc2ccco2)c[nH]1	nt	0.8
O=C(CCC(=O)N1Cc2ccccc2Oc2ncccc21)NCc1ccco1	nt	0.94
Cn1c2ccccc2c2nnc(SCCCC(=O)c3ccc(F)cc3)nc21	-0.9	0.61
COc1ccc(-c2nc3c4c(C)c(C)n(-c5ccc(F)cc5)c4ncn3n2)cc1	-2.1	0.04
COc1ccc(Nc2nc(-c3sc(C)nc3C)cs2)cc1	-2.1	0.38
CC1CCCN(C(=O)CN2c3ccccc3S(=O)(=O)c3ccccc32)C1 (configuration not stated)	nt	0.08
O=C(Nc1ccc2snnc2c1)N1CCOCC1	-0.94	0.52
COc1ccc(OC)c(C2=NS(=O)(=O)N(C)C(C(=O)Nc3cc(C)on3)=C2)c1	-1.6	2.2
CCOc1cc(C2CC(=O)N3CN(Cc4ccco4)CSC3=C2C#N)ccc1O (configuration not stated)	2.1	1.7
COc1ccc(C2=C(N(C)C3CCCCC3)c3ccccc3C2=O)cc1	-1.9	3.1
COc1ccc(C2C3=C(CC(C)(C)CC3=O)N=C3c4ccccc4C(=O)C32)cc1 (configuration not stated)	-0.48	-1.3
CC(C)Cc1nn2c(=O)cc(CSc3n[nH]c(N)n3)nc2s1	nt	0.05
CCOC(=O)c1[nH]c(C)c(C(=O)Nc2ccc(Br)cc2)c1C	0.9	nt
Cc1ccc(Cl)cc1NS(=O)(=O)c1ccc(-c2cnc(C3CC3)o2)cc1	nt	0.82
CC1CCC(C(=O)NC(C(=O)Nc2ccc3c(c2)OCCO3)C(C)C)CC1 (configuration not stated)	-1.2	-1.1
C=CCn1c(=O)c2ccc(C(=O)NC(C)C)cc2n2c(=O)[nH]nc12	-1.3	-0.09
COC(=O)c1c(N)sc2c1CCc1ccccc1-2	-2.4	0.53
CCc1nn2c(=O)cc(CSc3nnc(-c4ccc(C)cc4)o3)nc2s1	0.81	1.4
CC(=O)N1N=C(c2ccc([N+](=O)[O-])s2)OC1c1ccc(F)cc1 (configuration not stated)	nt	1.1
O=C(Nc1ccc(Cl)cc1Cl)C1CC(=O)N(c2ccc(Br)cc2)C1 (configuration not stated)	-1.7	nt
COc1ccc(OC)c2c1CC(C)(C)N=C2SC	-1.5	nt
COc1ccc(CNC(=O)Nc2c[nH]c3cc(OC)ccc3c2=O)cc1	-1.2	0.2
COC(=O)C1=C(C)NC2=C(C(=O)CC(c3ccccc3)C2)C1c1ccccc1F (configuration not stated)	-2.5	2.4
O=C1CC(c2cccc(F)c2)c2scc(-c3ccc(Cl)cc3)c2N1 (configuration not stated)	nt	1.5
CCCC(=O)Nc1ccccc1SCc1cc(=O)n2nc(CC)sc2n1	nt	0.76
Cc1noc(C)c1CCNC(=O)Nc1cn(CC(C)C)c(=O)c2ccccc12	nt	0.47
CCOP(C)(=O)C1(C(=O)OCc2ccccc2)CC1 (configuration not stated)	-0.88	nt
N#CCCN1CCC(C(N)=O)CC1	-0.21	nt
COc1cccc2sc(N(CCCN(C)C)C(=O)COc3ccccc3)nc12	nt	1.8
O=S(=O)(Nc1ccccc1N1CCOCC1)c1cccc2nonc12	-1.4	nt
Cc1ccc(-c2onc(C)c2C)cc1S(=O)(=O)Nc1ccc(-c2ccno2)cc1	nt	0.59
O=C(Cn1c(=O)oc2cc(S(=O)(=O)N3CCCC3)ccc21)NCC1COc2ccccc2O1 (configuration not stated)	-0.62	0.44
Cc1c(C(=O)N2CCCCCC2)sc2ncnc(N3CCCCC3C)c12 (configuration not stated)	-2.5	nt
CS(=O)(=O)NCc1nnnn1-c1ccccc1	nt	0.83
COc1ccc(-c2csc3ncnc(N4CCN(Cc5ccccc5)CC4)c23)cc1	nt	1.3
N#Cc1ccc(N2C(=O)C3=C(SCCS3)C2=O)cc1	0.75	nt
Cc1ccc(C2C=C(C(=O)O)Nc3nnnn32)cc1 (configuration not stated)	nt	1.2
COc1ccc(CN2COc3cc4c(cc3C2)OCO4)cc1	-1.7	nt
Cc1ccnc(NC(=O)c2nc(-n3cnnc3)ccc2Br)c1	nt	1.3
Cc1ccc(C(=O)/C=C/N(C)C)cn1	0.08	nt
O=C(c1cnc(N2CCOCC2)nc1)N1CCC(CCN2CCCC2)CC1	nt	1.6
COCCCN[C@H]1CS(=O)(=O)C[C@@H]1S(=O)(=O)c1ccc(OC)cc1	-1.5	0.9
COc1ccccc1N1C(=O)CC(N2CCN(c3ccccc3)CC2)C1=O (configuration not stated)	0.19	0.41
O=C(CCN1C(=O)C2C3C=CC(CC3)C2C1=O)NCc1cccs1 (configuration not stated)	0.16	nt
Nc1c(C(=O)NC2CCCCC2)sc(=S)n1-c1ccccc1	-1.9	1.1
COc1cc(C(=O)NNC(=O)C(C)Oc2ccc(Cl)cc2Cl)cc(OC)c1OC (configuration not stated)	-1.9	nt

Next records.
canonical_smiles	CDC25B CDK2 inh	HIV TAR-Tat
O=C(Cn1cc(S(=O)(=O)Cc2ccccc2F)c2ccccc21)N1CCCC1	nt	0
CCn1nc(C)c(CNC(=O)Nc2ccc3c(c2)OCCO3)c1C	nt	0.18
Cc1nc(-c2ccc(C)c(S(=O)(=O)Nc3cccc(Br)c3)c2)cs1	nt	-0.27
NC(=O)c1c(NC(=O)CSc2nc3ccccc3o2)sc2c1CCC2	-0.38	-2.2
CCC(C)OC(=O)C1=C(C)NC2=C(C(=O)C(C(=O)OC)C(C)C2)C1c1ccc(N(CC)CC)cc1 (configuration not stated)	-1.9	1.9
C(=C\c1nn2cnnc2s1)/c1ccccc1	0.12	0.36
Cc1ncc(-c2ccc(S(=O)(=O)NCc3cccnc3)cc2)o1	nt	1.2
COCc1nn2c(=O)c(NC(=O)c3ccc(OC)cc3)cnc2s1	-1.7	-0.73
CCC1CCCCN1C1=CC(=O)OC12CCCCC2 (configuration not stated)	-0.38	1.4
CC(=O)Oc1ccc(C2C(C(=O)OCCOc3ccccc3)=C(C)NC3=C2C(=O)CCC3)cc1 (configuration not stated)	-1.4	0.75
CC1(O)OC2(C)CCC1(C)OC2(C)O (configuration not stated)	-0.58	nt
CCCOCCOC(=O)C1=C(C)NC2=C(C(=O)CCC2)C1c1cccc(Br)c1 (configuration not stated)	nt	1.3

Not a retest: entries from further up.
canonical_smiles	CDC25B CDK2 inh	HIV TAR-Tat
CC1(O)OC2(C)CCC1(C)OC2(C)O (configuration not stated)	-0.58	nt
CCCOCCOC(=O)C1=C(C)NC2=C(C(=O)CCC2)C1c1cccc(Br)c1 (configuration not stated)	nt	1.3

New compounds follow.
canonical_smiles	CDC25B CDK2 inh	HIV TAR-Tat
O=c1[nH]c(=S)[nH]c(O)c1C(c1cccnc1)c1c(O)[nH]c(=S)[nH]c1=O	-2.7	nt
Cc1cc(NC(=O)c2cc(C(C)C)on2)n(-c2ccccc2)n1	0.51	0.58
O=C(O)C(Cc1ccc(O)cc1)NC1CCS(=O)(=O)C1 (configuration not stated)	-0.77	-0.19
CC(=O)N1CCOc2ccc(S(=O)(=O)N3CCCC3)cc21	-1.2	1.4
CCS(=O)(=O)N1CCCc2ccc(NS(=O)(=O)c3ccccc3Br)cc21	nt	0.18
Cc1ccc(-c2noc(CN(C(C)C)S(=O)(=O)c3ccc(Br)cc3)n2)cc1	-1.4	1.6
